# VACV mCherry inh: inhibitors of vaccinia virus infection (mCherry reporter signal); Vaccinia virus mCherry reporter infection, fluorescence; about a quarter of the inactives have no number; Potency, µM (top dose mostly 36.5 µM), for the others: top-dose activity change, negative = inhibition, hits mostly inhibitors; actives 0.63% (n = 310,000); AID 720579; active = well fitted inhibition curve with a large enough effect; inconclusive = small, poorly fitted or top-dose-only effect; inactive = no such curve, though single readings can be large or run the other way; tested in A549 cells; further: nearly all actives have a fitted effect of over 35% in size; inactives centre near -10
# Vaccinia Venus: inhibitors of vaccinia virus (Venus reporter); actives 0.46% (n = 330,000); Potency, µM (top dose mostly 36.5 µM), for the others: at the top dose activity change, negative = inhibition, most hits filed as inhibitors; AID 720580; Vaccinia virus Venus reporter expression, fluorescence; active means well fitted inhibition curve with a large enough effect; inconclusive means small, poorly fitted or top-dose-only effect; inactive means no such curve, though single readings can be large or run the other way; tested in A549 cells; further: nearly all actives have a fitted effect of over 30% in size; inactives centre near -10
# Starred values were filed as active, the others as inactive; i = inactive; ? = inconclusive; / = not tested or not shown; [ ] = dose if it differs, or a comment. On the % scale 0 is the no-effect control and ±100 the full control effect; potency means the concentration at half of the fitted maximal effect.
SMILES,VACV mCherry inh,Vaccinia Venus
CNCC(=O)Nc1c(C)n[nH]c1C,-9%,-1%
O=C(O)c1ccccc1Nc1ccc([N+](=O)[O-])c2nonc12,-15%,31%[activator]
COc1ccc(CCn2nnnc2C(CC(C)C)N2CCC(C(N)=O)CC2)cc1OC (configuration not stated),i,-17%
Cc1nnc(SCc2nc3sc(C(=O)O)c(C)c3c(=O)[nH]2)s1,-2%,-10%
COc1ccccc1CNC(=O)c1ccc(-c2ccccc2)cc1,i,-17%
O=C(NCc1ccccc1)c1ccccc1C(=O)c1ncc[nH]1,-17%,-15%
O=C(NCc1ccc(Cl)c(Cl)c1)c1cc(C2CCCCN2C(=O)OCCF)on1 (configuration not stated),i,-10%
Cc1cc(C)n(C(N)=NC(=O)c2ccc([N+](=O)[O-])cc2)n1,?,-10%
Cc1cc(C)cc(NC(=O)CCc2c(C)nc3nc(CNC(=O)c4cccc(F)c4)nn3c2C)c1,-2%,5%
Cc1ccc(-n2c(SCc3nc(-c4ccccc4C)no3)nnc2-c2ccncc2)cc1C,-6%,1%
Cc1ccc(NC(=O)c2ccccc2SCC(=O)N2CCCC2)cc1S(=O)(=O)N(C)C,-15%,-4%
CC(=O)c1cn(-c2ccc(Cl)cc2)c(=O)n(Cc2ccc(Br)cc2)c1=O,i,1%
COc1ccccc1-c1cc(N)n(S(=O)(=O)c2ccc(F)c(C)c2)n1,?,-26%
Cc1ccc(-c2nnn(CC(=O)N(CC(=O)NC3CCCC3)c3ccc(F)c(Cl)c3)n2)o1,i[1.46 µM],?
CC(C)(C)c1ccc(S(=O)(=O)Nc2ccc(O)c(Sc3nc4ccccc4s3)c2)cc1,-11%,-13%
COCCNC(=O)C1CCCN(C(=O)c2ccc3c(c2)C(C)(C)CCC3(C)C)CC1 (configuration not stated),i,-12%
O=C(Nc1ccc(F)cc1F)NC1CCCc2ccccc21 (configuration not stated),i,-6%
Cc1cccc(CN2C(=O)c3ccccc3S(=O)(=O)c3ccc(C(=O)N(C)Cc4ccccc4)cc32)c1,-16%,-17%
C=C1C(=O)OC2C=C(CO)C3OC3C3OC3(C)CC(OC(=O)/C(=C/C)COC(C)=O)C12 (configuration not stated),?,-18%
COC(=O)CN1C(=O)CSc2ncccc21,/,-12%
COc1ccc([N+](=O)[O-])cc1NC(=O)C(C)OC(=O)Cc1ccc(OC)c(OC)c1 (configuration not stated),-11%,-8%
COC(=O)c1ccccc1NC(=O)CCCn1nc(C)c2sc3ccccc3c2c1=O,-6%,-4%
COc1cc(C(=S)N2CCCC2)ccc1O,0%,-5%
CCOc1ccc(CCNC(=O)c2cc3c(-c4cccc(OC)c4)nn(C)c3s2)cc1OCC,?,?

# An excerpt of these results, with values under each structure:
# Second line of a record – VACV mCherry inh | Vaccinia Venus
O=C(Nc1ccc(F)cc1F)NC1CCCc2ccccc21 (configuration not stated)
→ i | -6%
COC(=O)CN1C(=O)CSc2ncccc21
→ / | -12%

# Next part
SMILES,VACV mCherry inh,Vaccinia Venus
Cc1ccnc(NS(=O)(=O)c2ccc(NC(=O)Cc3ccccc3)cc2)n1,i,-4%
CN1N=C(C(C)(C)C)CSC1=Nc1ccc(F)cc1,-2%,-18%
COc1cc(Cn2c(=O)oc3ccc(C)cc32)ccc1OCCC(C)C,-2%,0%
CCCS(=O)(=O)c1nc(S(=O)(=O)c2ccc(Cl)cc2)c(N2CCC(O)CC2)s1,-25%,-30%
O=C(COCc1ccccc1)N[C@@H]1c2ccccc2CC[C@@H]1OCc1ccccc1,-20%,-22%
COc1ccc(N(CC(=O)NC2CCCCC2C)S(=O)(=O)c2c(C)nn(C)c2C)cc1 (configuration not stated),3%,5%
CCOC(=O)N1CCN(S(=O)(=O)c2ccc(OCC)c(C)c2)CC1,/,?
Fc1cccc(Cl)c1CSc1nnc2ccccn12,-3%,-3%
COc1ccc(/C=C\c2onc(C)c2S(=O)(=O)N2CCC(C(=O)Nc3cccc(Cl)c3)CC2)cc1,-20%,-19%
CC(C)CC(=O)Nc1ccc(C(=O)CN2CCC(C)CC2)cc1,i,-9%
COc1ccc2c(CNC3CCCCCC3)c(C(=O)O)n(Cc3ccc(C)cc3)c2c1,-7%,-11%
COc1ccc(S(=O)(=O)NCCc2csc(-c3cccc(F)c3)n2)cc1OC,-21%,-11%
Cc1cccc(N(C)S(=O)(=O)c2cc3[nH]c(=O)c(=O)[nH]c3cc2C)c1,2%,-3%
CC1NC(=O)COC1c1ccccc1 (configuration not stated),i,-5%
CC(=O)Nc1ccc(N/C=C/C(=O)c2ccccc2)cc1,-11%,3%
Cc1cc(C)cc(NS(=O)(=O)c2c(C(=O)N3CCCCCC3)c(C)n(C)c2C)c1,-19%,-9%
O=C(Nc1ccc(-c2nc3ncccc3o2)cc1)c1ccc([N+](=O)[O-])o1,-30%,-22%
Cc1ccc(C(=O)OCC(=O)Nc2c(C)n(C)n(-c3ccccc3)c2=O)cc1[N+](=O)[O-],-16%,-16%
Cc1ccc(C(=O)NCc2ccc3c(c2)OCO3)cc1Cl,-17%,-16%
O=C(COC(=O)c1c[nH]c(=O)[nH]c1=O)Nc1ccccc1,i,4%
CCOC(=O)C1=C[C@@H](C(C)(C)C)N(S(=O)(=O)c2ccc(C)cc2)[C@H]1c1cccc2ccccc12,i,0%
CCCNC(=O)Cc1c(C)oc2ccccc12,i,3%
CCCc1cc2c(cc1NC(=O)Cc1ccccc1)OCO2,-5%,-15%
Cc1cc(C)nc(NC(=O)c2ccc(Cl)c(Cl)c2)n1,/,-27%
CC(C)CNC(=O)CCCSc1nc2ccccc2[nH]1,-11%,-5%
Cc1ccc(S(=O)(=O)NCC(=O)OC(C)C(=O)Nc2ncc(Cl)cc2Cl)cc1 (configuration not stated),i,-7%
CCCN1C(=O)/C(=C/c2ccc(C)s2)SC1=Nc1ccc(OC)cc1,/,18%
CCC(CC)C(=O)Nc1nnc(SCc2cc(=O)c3ccccc3[nH]2)s1,-15%,-15%
CCOC(=O)c1c(C(C)(C)C)oc2ccc(O)cc12,/,?
COc1ccc(Cl)cc1S(=O)(=O)NC(C)C(=O)NCc1cccnc1 (configuration not stated),8%,-1%
CC(=O)N(Cc1cccnc1)c1nc2c(C)cc(C)cc2s1,-11%,-3%
CC(C)CNc1nc(Oc2ccc(=O)n(C)n2)nc(N2CCOCC2)n1,i,0%
CC(C)(C)c1ccc(C(=O)N2CCC(c3nc(-c4ccc(S(=O)(=O)N5CCCC5)cc4)no3)CC2)cc1,?,?
CCCCN(CCCC)C(=O)c1cc2c(=O)n3ccccc3nc2s1,-7%[7.34 µM],-4%[7.34 µM]
Cc1ccc(-n2nnnc2SCC(=O)c2cc(C)n(-c3cc(C)on3)c2C)cc1,i,-9%
CCc1ccc(C2CC3C(CN2S(=O)(=O)c2ccc(C)cc2)C(=O)CC(c2ccc(CC)cc2)N3S(=O)(=O)c2ccc(C)cc2)cc1 (configuration not stated),-15%,-6%
Cc1ccc2c(c1)CN(C(=O)CC(c1ccccc1)c1ccco1)CC(C)O2 (configuration not stated),?,-26%
Nc1nc(/C=C/c2cccnc2)nc(-c2ccccc2O)n1,?,?
COc1cccc(CNC(=O)c2cccc(-n3c(C)nc4cccnc43)c2C)c1,-13%,-14%
Cc1ccccc1NC(=O)CN1C(=O)C(C)(C)c2ccccc21,-6%,9%
O=C(NCCc1csc(-c2ccc(C(F)(F)F)cc2)n1)c1cccs1,-13%,-9%
CCOc1ccc(NC(=S)N2CCN(CCN3C(=O)c4cccc5cccc(c45)C3=O)CC2)cc1,-13%,-24%
CCOC(=O)[C@H]1[C@H]2COc3cc(OC)ccc3[C@@H]2N2C(=O)CN(Cc3ccco3)C(=O)[C@@]12C,i,-11%
C[C@H](CO)N1C[C@H](C)[C@@H](CN(C)C(=O)Cc2ccccc2)OCc2cnnn2CCCC1=O,i,-13%
Cc1ccc(/C=C2\Oc3cc(OC(=O)N4CCOCC4)ccc3C2=O)cc1,-13%,-5%
CC(C)(C)S(=O)(=O)N1C[C@H]2CC/C=C\C/C=C\2[C@@H]1CCO,-8%,-3%
O=P(c1ccccc1)(c1ccccc1)N1CCCCC1,-8%,-3%
CCOc1ccc2nc(N3CCCC(C(=O)Nc4ccc(Br)c(C)c4)C3)sc2c1 (configuration not stated),0%,-11%

# Shown as tab-separated lines: four of the compounds above.
compound	VACV mCherry inh	Vaccinia Venus
C[C@H](CO)N1C[C@H](C)[C@@H](CN(C)C(=O)Cc2ccccc2)OCc2cnnn2CCCC1=O	i	-13%
Cc1ccc(/C=C2\Oc3cc(OC(=O)N4CCOCC4)ccc3C2=O)cc1	-13%	-5%
CC(C)(C)S(=O)(=O)N1C[C@H]2CC/C=C\C/C=C\2[C@@H]1CCO	-8%	-3%
O=P(c1ccccc1)(c1ccccc1)N1CCCCC1	-8%	-3%

# The list continues.
SMILES,VACV mCherry inh,Vaccinia Venus
COc1ccc(S(=O)(=O)N2CCOCC2)cc1NC(=O)/C=C/c1ccccc1,-19%,0%
c1ccc(CSCc2ccccc2)cc1,-12%,2%
O=C(O)c1ccc2c(=O)n(-c3ccccc3)c(=S)[nH]c2c1,-9%,-13%
CCc1cc(C(=O)Nc2cc(S(=O)(=O)N3CCOCC3)ccc2N2CCN(CC)CC2)sc1C,-15%,-11%
Cc1ccc(S(=O)(=O)C(C#N)c2nc3ccccc3nc2N2CCN(C)CC2)cc1 (configuration not stated),?,?
CC(C)(C)C1=CC(=Nc2ccccc2N)C=C(C(C)(C)C)C1=O,-15%,-9%
Cc1ccc2nsnc2c1S(=O)(=O)N(Cc1ccco1)Cc1cc2ccc(C)c(C)c2[nH]c1=O,-12%,-6%
COc1ccc(C2CC(c3ccccc3)=NN2S(=O)(=O)c2ccc(C)cc2)c(OC)c1 (configuration not stated),-25%,-19%
Cc1ccc(S(=O)(=O)N(C)CC(=O)N2CCC(C(N)=O)CC2)cc1,1%,-12%
CCCCSc1nnc(CCNC(=O)OC(C)(C)C)o1,0%[7.34 µM],-3%[7.34 µM]
CC(=O)CC(C)(C)Nc1nc2ccc([N+](=O)[O-])cc2o1,-4%,-14%
CC(=O)Nc1cccc(OC(=O)N2CCOCC2)c1,/,-8%

# Whole records as entered above. Screens in order: VACV mCherry inh	Vaccinia Venus
# Shown for Cc1ccc2nsnc2c1S(=O)(=O)N(Cc1ccco1)Cc1cc2ccc(C)c(C)c2[nH]c1=O = -12%	-6%
# Shown for Cc1cc(C)n(C(N)=NC(=O)c2ccc([N+](=O)[O-])cc2)n1 = ?	-10%
# Shown for O=C(O)c1ccccc1Nc1ccc([N+](=O)[O-])c2nonc12 = -15%	31%[activator]
# Shown for COc1cc(Cn2c(=O)oc3ccc(C)cc32)ccc1OCCC(C)C = -2%	0%

# Following part:
SMILES,VACV mCherry inh,Vaccinia Venus
CCN(CC(=O)Nc1ccc(OC)cc1)C(=O)c1ccc([N+](=O)[O-])cc1,-17%,-17%
CCOc1ccc(-c2nonc2NC(=O)c2oc3ccc(Cl)cc3c2C)cc1,-29%,-28%
Cc1ccc(OCc2nc(-c3ccc(C(=O)NCCc4ccc(S(N)(=O)=O)cc4)cc3)oc2C)cc1,-15%,-15%
CC(C)C[C@H]1CNC(=S)N1CC1CCCN1C[C@H](Cc1ccccc1)N1C[C@H](Cc2ccc(O)cc2)N(CC2CCCCC2)C1=S (some centres not stated),?,?
Cc1ccc(C(=O)Oc2coc(CSc3nnc(NC(=O)c4cccs4)s3)cc2=O)cc1,-5%,5%
COc1ccccc1/C=N/n1cnnc1,-9%,-2%
COc1ccc(OC)c(Nc2nc(NCc3ccco3)c3ccccc3n2)c1,-22%,-23%
O=S(=O)(c1ccccc1)N(Cc1nc(-c2ccccc2)no1)C1CCCCC1,/,-24%
O=C(c1cccnc1)C1CCCN(Cc2ccc3c(c2)CN(C(=O)c2cnccn2)CCO3)C1 (configuration not stated),-4%,3%
O=C(CSc1nccn1Cc1ccccc1)Nc1ccc2c(c1)OCO2,-10%,-4%
CCOc1ccc(NC(=O)CSc2nc(N3CCOCC3)nc(N3CCOCC3)n2)cc1,-14%,-5%
CC1(C)NC(=O)N(CC(=O)OCC(=O)c2ccc(Cl)s2)C1=O,i,12%
C=C1C=C(C(F)F)n2ncc(C(=O)NCc3ccc(OC)c(OC)c3)c2N1,-13%,?
COc1ccc(-n2cc(-c3ccccc3)nc2SCC(=O)Nc2ccccc2)cc1Cl,-9%,-6%
CC(C)(C)N1C(=O)[C@H]2[C@@H](c3ccc(Br)cc3)N3C(=O)N(c4ccccc4)C(=O)[C@@]3(Cc3ccccc3)[C@H]2C1=O,i,-13%
O=c1oc2ccccc2c2c1SC(C(F)(F)F)C2 (configuration not stated),-20%,-15%
COc1ccc(-c2nnc(C3CCN(S(=O)(=O)c4ccc(C)c(C)c4)CC3)o2)cc1,-22%,-20%
CN(CC(=O)NCCc1ccc(F)cc1)Cc1ccc(Br)cc1,-15%,1%
COc1ccccc1CNC(=O)c1ccc(C)c(-n2cnc3cccnc32)c1,-13%,-6%
Cc1ccccc1Oc1cccc(C(=O)/C(C#N)=C/N(C)C)c1,-4%,3%
COc1ccc(N(CC(=O)NCc2cccs2)S(=O)(=O)c2cccc(C)c2)cc1,i,-12%
Fc1ccc(-c2ccnc(=S)[nH]2)cc1,i,-2%
Cc1c(Cl)cccc1NC(=S)N(Cc1ccccc1)Cc1cccnc1,-7%,-10%
CC(C)c1cc(=O)n2[nH]c(SCc3ccccc3Cl)nc2n1,i,-8%
Nc1nnc(-c2ccc([N+](=O)[O-])o2)s1,?,?
CCOC(=O)N1CCN(c2nc(=S)n(-c3ccccc3)c(C)c2C(C)=O)CC1,/,-1%
COc1ccc(-c2cc(=O)c3cc(OC)c(OC)cc3[nH]2)cc1,i,-16%
CCc1cccc(CC)c1NC(=O)CSc1nnc(CCC(=O)O)c(=O)[nH]1,-1%,-11%

# Compound activity: PubChem BioAssay, National Center for Advancing Translational Sciences (NCATS)
